LANA-H2A inh – blocks KSHV LANA binding to histone H2A/H2B | Q9QR71 | cell-free LANA-H2A/H2B peptide, fluorescence polarization | inhibition, % (no concentration beside the values) | 320,000 tested, 0.6% active; in the data active = inhibition mostly above about 10%, no sharp cut-off; inactive = mostly below about 6.7%;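 note: stock transfer was 7.5 nL into about 10 µL; 0% = median of vehicle wells and 100% = median of positive control wells; one replicate is shown; the record names a cut of 25% in any replicate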
RanGTP-Impb inh – disruptors of Ran-importin-beta complex formation – biochemical, FRET, CFP-Ran, YFP-importin-beta, homogeneous, primary screen | cell-free CFP-Ran/YFP-importin-beta FRET ratio | 300,000 tested, 1.1% active | AID 2216 | inhibition, % (test concentration not listed);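 active = most replicates above 15%; inconclusive = exactly half above 15%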;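 note: 0% = DMSO wells and 100% = Ran loaded with GDP instead of GTP; wells of about 40 µL received 100 nL stock; the first replicate is given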
T cruzi repl – T. cruzi replication inhibition. T. cruzi beta-gal in NIH3T3, luminescence, 90 h. inhibition, % (test concentration not listed). 300,000 tested, 1.4% active;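 active = mean inhibition across valid replicates above about 55%, limit read from the data; inconclusive = mean below that limit but half or more replicates reach it; inactive = mean below it, under half of replicates reach it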;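 note: signal also drops with host cell toxicity which is not excluded here; 0% = plate median of DMSO wells and 100% = zero luminescence signal; higher percent means less beta-gal luminescence so fewer parasites; stock transfer was 50 nL into about 50 µL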
Calb FLC – C. albicans growth modulation with fluconazole | C. albicans CaCi-2 (fluconazole-resistant clinical isolate) + fluconazole, Alamar Blue growth, 48 h | growth inhibition, % (concentration not given with the values) | 300,000 tested, 0.57% active | AID 1979;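 active = most replicates above 75%; inconclusive = exactly half above 75%; inactive = most below 75%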;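 note: all wells also contain fluconazole at 8 µg/ml as a sub-toxic cotreatment; 0% = median of DMSO wells and 100% = median of geldanamycin control wells; wells of about 8 µL received 7.5 nL stock; the first replicate is given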
Beta cell apopt – blocks beta cell apoptosis | INS-1E cytokine-induced death, ATP luminescence, 48 h; percent of positive-control rescue, neutral wells zero | protection from apoptosis, % (concentration not given with the values) | 300,000 tested, 0.8% active | AID 435005;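 active = all replicates at 75% or more, or half of them and the mean; inconclusive = half reach 75% but not the mean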;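 note: 0% = cytokine-treated negative control wells and 100% = positive control rescue; higher means more ATP so stronger rescue from cytokine killing; wells of about 40 µL received 100 nL stock; the first replicate is given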
Vif A3G – HIV-1 Vif–A3G interaction blockers – biochemical, TR-FRET, GST-Vif 1-94, biotin-A3G peptide, dose response retest, primary screen (AID 1117319); TR-FRET GST-Vif / biotin-A3G peptide binding; higher % means a stronger effect; test concentration not given here; strong numbers were not always called active; inhibition, %; hits with a dose series show IC50 in µM; 260,000 tested, 0.57% active;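 active = above the screen mean plus three standard deviations and confirmed in dose response; inconclusive = results disagree or hit not tested in dose response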;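 note: Vif residues 1-94 fused to GST binding biotinylated APOBEC3G peptide 110-148; 0% = full assay without inhibitor and 100% = GST in place of GST-Vif; retest series ran down from 100 µM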
MLL AF4-AF9 inh – blocks AF4 peptide binding to human AF9 | P42568 | AlphaScreen, biotin-AF4 peptide binding to FLAG-AF9 | inhibition, % at 10 µM | 350,000 tested, 0.47% active | AID 651704;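 active = every replicate reaching a set inhibition limit, whatever the replicate mean, cut at about 25% in these data; inconclusive = mean inhibition reaches that limit but some replicates miss it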;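 note: 0% = plate neutral control median and 100% = total signal loss; the record names both 10 and 1 µM as test concentration; the first replicate is given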
Target sequence (P42568 whole entry, looked up): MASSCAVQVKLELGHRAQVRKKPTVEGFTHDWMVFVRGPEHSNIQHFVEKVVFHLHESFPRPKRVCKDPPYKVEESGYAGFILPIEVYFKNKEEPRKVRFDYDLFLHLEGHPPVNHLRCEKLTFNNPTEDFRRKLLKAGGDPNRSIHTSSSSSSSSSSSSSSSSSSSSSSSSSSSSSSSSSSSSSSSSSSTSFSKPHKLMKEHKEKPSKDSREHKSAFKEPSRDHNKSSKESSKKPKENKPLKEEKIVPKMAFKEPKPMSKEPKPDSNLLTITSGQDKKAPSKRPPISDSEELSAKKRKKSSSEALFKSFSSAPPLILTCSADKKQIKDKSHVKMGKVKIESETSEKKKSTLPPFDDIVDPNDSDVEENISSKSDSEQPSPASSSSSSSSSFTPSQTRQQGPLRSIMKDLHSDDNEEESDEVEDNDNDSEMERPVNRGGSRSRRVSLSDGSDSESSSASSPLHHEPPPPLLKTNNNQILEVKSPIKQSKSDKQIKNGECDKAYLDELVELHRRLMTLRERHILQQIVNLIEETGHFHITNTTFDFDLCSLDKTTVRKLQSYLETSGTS
Bfl-1 A1 inh – inhibitors of the anti-apoptotic protein A1, read as caspase activation. MEF A1-2A-BIM cells, Caspase-Glo 3/7 luminescence, 3 h; percent of clofoctol response, vehicle zero. 330,000 tested, 0.066% active. caspase activation, % (concentration not given with the values). AID 2462;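 active = over half of replicate activation scores above 10%, or exactly half above 10 with the replicate mean above 10; inconclusive = replicate mean below 10 yet half the replicates above 10; inactive = over half of replicates below 10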;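 note: wells of about 30 µL received 50 nL stock; many hits fall short of the cut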
An asterisk follows results filed as active; ? = inconclusive; . = no result given.

Value order – LANA-H2A inh	RanGTP-Impb inh	T cruzi repl	Calb FLC	Beta cell apopt	Vif A3G	MLL AF4-AF9 inh	Bfl-1 A1 inh
Cc1cc(C)n(-c2nc(O)cc(=O)[nH]2)n1
    -2.8	0.6	-11	2	3	-1%	.	0.9
CCOc1ccc(NC(=S)N2CCN(S(=O)(=O)c3ccc(OC)cc3)CC2)cc1
    -1.5	-1.0	-1	-5	-2	.	1.2	-0.2
COc1cnc(-c2ccccn2)nc1Oc1ccccc1Cl
    -2.6	0.2	-7	-15	11	2%	.	0.2
Cc1cc(C)c(C(=O)CSc2n[nH]c(-c3ccncc3)n2)c(C)c1
    -6.4	-0.7	3	9	-2	.	-2.4	0.5
Nn1c(SCC(=O)Nc2cccc(F)c2)nnc1C1CCCCC1
    -1.7	.	10	5	-3	0%	.	0.6
Cc1cc(C(=O)OCC(=O)N(CC(C)C)c2c(N)n(Cc3ccccc3)c(=O)[nH]c2=O)c2ccccc2n1
    3.0	-2.0	-11	5	0	2%	-11	-0.4
O=C(NCc1ccc(N2CCCC2=O)cc1)c1cn(Cc2ccccc2)nn1
    0.1	-1.5	7	-2	-7	4%	.	0.0
Cc1ccnc(NS(=O)(=O)c2ccc(NC(=O)c3cc(-c4ccccc4)nc4ccccc34)cc2)n1
    1.3	1.8	2	2	10	9%	-0.9	-0.4
C=CCN1C(=O)c2ccc(C(=O)N3CCN(S(=O)(=O)c4cc(C)ccc4C)CC3)cc2C1=O
    -6.4	-0.1	-16	17	.	2%	18	1.0
COc1c(-c2ccccc2)oc2c(ccc3occc32)c1=O
    23	.	.	.	2	-7%	-2.5	0.2
O=C(c1cc(N2C(=O)C3C4CCC(C4)C3C2=O)ccc1Cl)N1CCCCCC1 (stereo not given)
    14	1.1	8	-13	4	2%	-3.7	0.2
CCOc1ccccc1NC(=S)Nn1cnnc1
    1.6	-1.9	2	-5	3	.	0.3	-0.9
CCOc1ccc(NS(=O)(=O)c2ccc(C(=O)N(C)CC(=O)Nc3ccc(OC)cc3)cc2)cc1
    -1.3	3.8	-12	3	3	3%	2.0	-0.1
Cc1cc(C=O)c(C)n1-c1ccc(NC2CCCCC2)c([N+](=O)[O-])c1
    5.2	?	33	-6	0	2%	.	0.2
COc1ccc2c(=O)c(C(=O)NCCc3ccccc3)c[nH]c2c1
    0.4	-14	3	-8	.	2%	1.1	-0.1
Cc1cc(C)c2nc(SCC(=O)NCC3CCCO3)c(C#N)cc2c1 (stereo not given)
    1.1	0.4	-15	3	-1	-42%	-0.4	-0.3
NS(=O)(=O)c1cccc(NC(=O)CN2CCC(Cc3ccccc3)CC2)c1
    -2.6	1.9	3	-6	-3	.	3.3	-0.6
O=C(CNC(=O)c1n[nH]c2ccccc12)Nc1cc(Cl)ccc1Cl
    0.2	.	.	.	-6	.	1.4	-0.6
COc1ccc2cc(/C=N/NC(=O)CSCc3ccc([N+](=O)[O-])cc3)c(Cl)nc2c1
    3.5	2.4	2	1	-3	-2%	1.4	0.3
O=[N+]([O-])c1cc(C(F)(F)F)ccc1N1CCN(CCO)CC1
    -2.1	3.4	9	-5	2	32%	-0.1	1.1

Record cards (already shown).
`COc1ccc2c(=O)c(C(=O)NCCc3ccccc3)c[nH]c2c1` is listed as LANA-H2A inh: 0.4; RanGTP-Impb inh: -14; T cruzi repl: 3; Calb FLC: -8; Beta cell apopt: .; Vif A3G: 2%; MLL AF4-AF9 inh: 1.1; Bfl-1 A1 inh: -0.1
`O=C(NCc1ccc(N2CCCC2=O)cc1)c1cn(Cc2ccccc2)nn1` is listed as LANA-H2A inh: 0.1; RanGTP-Impb inh: -1.5; T cruzi repl: 7; Calb FLC: -2; Beta cell apopt: -7; Vif A3G: 4%; MLL AF4-AF9 inh: .; Bfl-1 A1 inh: 0.0

(next part)
Value order – LANA-H2A inh	RanGTP-Impb inh	T cruzi repl	Calb FLC	Beta cell apopt	Vif A3G	MLL AF4-AF9 inh	Bfl-1 A1 inh
CN1CCCN(Cc2cccc3ccccc23)CC1
    1.0	22*	23	-15	-16	0%	-3.0	0.5
COCCNC(=O)c1cc(-c2ccccc2)nn1Cc1cc(C)no1
    -0.1	.	.	.	0	.	0.1	0.5
O=S(=O)(NCc1ccccn1)c1ccc(Br)s1
    5.8	2.0	-12	1	3	7%	.	-0.1
O=C(O)c1cc(NC(=O)c2ccc3c(c2)C(=O)N(Cc2ccccc2)C3=O)cc(C(=O)O)c1
    -6.6	4.0	-3	-1	-2	7%	-1.0	0.1
O=C(CN1N=C(c2ccccc2)CCC1=O)NCc1ccccc1
    -3.3	3.7	-8	15	-8	-6%	-0.8	0.3
CCn1c(=O)[nH]c2cc(C(=O)Nc3cc(C)cc(C)c3)ccc2c1=O
    1.4	0.2	-19	1	-1	-1%	0.5	0.8
CN(C)CCn1ccc(O)c(Cc2ccc(Cl)cc2)c1=O
    1.6	1.2	-11	4	0	-8%	0.0	-0.7
COC(=O)c1ccc(C2C(C#N)=C(N)Oc3cc(N)ccc32)cc1 (stereo not given)
    0.6	-8.8	4	-11	-3	.	-1.5	-0.4
CCc1c(O)nc2sc3ccccc3n2c1=O
    -0.8	5.5	-5	-2	-11	-1%	.	-0.2
CC(=O)N(c1ccc(Br)cc1)C1C=CS(=O)(=O)C1 (stereo not given)
    1.4	-3.8	-12	4	.	2%	-50	-1.0
O=C1c2ccccc2C(=O)N1CC(O)Cn1nnc2ccccc21 (stereo not given)
    2.9	3.1	-13	24	2	5%	.	0.2
O=C1c2ccccc2C(Nc2ccc(S(=O)(=O)N3CCCCC3)cc2)N1Cc1ccco1 (stereo not given)
    4.8	0.6	2	1	-2	3%	0.6	0.2
CCOC(=O)C1CCN(C(=O)Nc2c(-c3ccccc3)noc2C)CC1
    0.4	2.1	-17	-1	-3	-4%	1.2	0.4
O=c1cc(O)n(-c2ccccc2F)c(=S)[nH]1
    -3.5	-1.3	0	-16	-9	14%	-1.5	-1.1
COc1ccc(C(=O)O/N=C(/C)c2cccs2)cc1
    -1.1	-2.1	-12	-28	-9	3%	.	-1.4
CC1CCCC(NC(=O)COC(=O)CN2C(=O)C3CCCCC3C2=O)C1C (stereo not given)
    1.1	-1.3	-9	-5	-5	9%	-2.7	0.8
Cc1ccc(C)c(NC(=O)Cc2nc(CNCC(C)C)cs2)c1
    3.2	4.0	-9	-5	-6	.	0.9	0.4
Cc1ccc2c(c1)C(=O)CC(O)(C(F)F)O2 (stereo not given)
    -0.7	3.5	7	29	-3	6%	-8.1	0.4
CS(=O)(=O)c1ccc(Cl)c(NC(=O)Cc2c(Cl)cccc2Cl)c1
    5.4	5.1	0	-7	-3	-17%	-2.3	0.9
O=C(Nc1ccccc1C(=O)N/N=C/c1ccco1)c1ccccc1Cl
    6.2	0.1	-3	36	-4	4%	.	0.3
O=C(c1ccccc1)N1CCN(C(=O)c2ccccc2Br)CC1
    -2.8	-2.6	-2	30	-6	11%	.	0.0
CCCn1c(SCC(=O)NCc2ccc(OC)cc2)n[nH]c1=O
    8.0	5.5	-11	-14	-13	12%	-2.8	0.4
N#CC1(NC(=O)COc2ccc(S(=O)(=O)N3CCCC3)cc2[N+](=O)[O-])CCCCC1
    0.3	-6.1	3	-10	-2	6%	-6.3	1.3
CC1=NN(C(C#N)c2ccc(F)cc2)C(C)(C)C1 (stereo not given)
    -1.6	0.1	-4	-3	3	-3%	-5.9	0.1
S=c1[nH]cnc2scc(-c3ccccc3)c12
    -0.2	-2.4	15	-20	.	.	-3.3	0.3
COC(=O)c1ccc(C23CC4(C2)[C@H](CN(CC2CCCCC2)[C@@H]4c2ccccc2)C3c2ccc(C(F)(F)F)cc2)cc1 (stereo not given in full)
    -3.5	2.0	3	1	8	-3%	0.6	0.3
O=C(N/C(=C\c1ccc([N+](=O)[O-])cc1)C(=O)N1CCCCC1)c1ccc(Br)o1
    7.5	8.0	9	-1	1	.	4.6	0.2
COc1ccccc1OCCCC(=O)Nc1nccs1
    0.8	3.7	-5	-7	-6	5%	-0.9	-0.7
O=C(NCC1CCCO1)c1ccc[nH]1 (stereo not given)
    -1.9	-3.0	2	4	-3	1%	-2.4	0.1
Cc1ccc(S(=O)(=O)c2cc(C#N)c(=O)[nH]c2N)cc1
    0.9	-2.0	-3	-7	-1	3%	.	0.8
O=C(Nc1ccc(Cl)cn1)c1ccccc1F
    -1.5	-1.6	-3	-23	0	2%	.	-6.5
CC(C)CCNC(=O)c1ccc(Cl)c(N)c1
    5.3	?	3	-6	2	?	.	0.6
Cc1ccc(S(=O)(=O)N=Nc2c(O)[nH]c3ccccc23)cc1
    0.5	6.1	-11	-27	-7	73%	.	-0.1
O=C(NCc1ccccc1Cl)c1ccncc1
    -0.4	9.5	-22	-10	-4	.	-3.2	0.3
Cc1cccc(OCC(=O)N(Cc2ccccc2)c2c(N)n(Cc3ccccc3)c(=O)[nH]c2=O)c1
    3.4	.	.	.	4	-8%	0.5	0.2
O=C(OCC1CC(c2ccccc2Cl)=NO1)c1ccc(Br)cc1 (stereo not given)
    2.9	-4.6	-5	2	3	20%	.	0.0
CCOc1ccc2nc(NC(=O)C3CSC4(C)CCC(=O)N34)sc2c1 (stereo not given)
    -3.0	.	.	.	2	-2%	4.3	0.5
O=C(CCl)N1CCN(S(=O)(=O)c2ccc3c(c2)CCC3)CC1
    1.4	.	.	.	-6	.	1.6	0.1
c1ccc2c(c1)CCCN2c1nc(N2CCOCC2)nc(N2CCOCC2)n1
    -1.6	0.1	17	8	-15	2%	.	-0.2
Cc1ccnc(Nc2nc(-c3ccc(Cl)cc3)cs2)c1
    0.3	-1.4	23	5	5	-10%	-6.5	-0.1
CC1CN(C(=O)CSc2nnc(-c3ccncc3)n2-c2ccccc2)CC(C)O1 (stereo not given)
    1.0	7.0	-13	33	-1	2%	.	0.0
O=C(Nc1ccc(CN2CCOCC2)cc1)c1cccc(F)c1
    -5.2	.	5	-9	2	-3%	.	-2.0
CCOC(=O)Cc1nn(CC)c(=O)c2ccccc12
    -0.6	-0.4	4	9	-3	.	-0.8	0.4
CCOC(=O)CN1C(=O)/C(=C/c2c(F)cccc2Cl)Oc2ccccc21
    7.4	-2.2	7	-5	-1	.	1.7	0.7
CC(=O)N1CCc2cc(S(=O)(=O)NC3CCCc4ccccc43)ccc21 (stereo not given)
    -0.1	.	.	.	19	11%	.	-1.6
CCC(C)NC(=O)c1cc(-c2cccs2)nc2ccccc12 (stereo not given)
    1.7	0.7	-2	-12	2	3%	2.6	2.1
COc1ccc(C2=Nn3c([n+](C)c4ccccc43)SC2)cc1
    3.8	-0.1	70*	62	112*	.	-0.8	-0.1

Compound activity deposited in PubChem by several laboratories.

Compounds as they come; about 4.3% have a hit in one of these screens.
